# Compound activity from PubChem.
# Menin-MLL FL inh: menin-MLL binding inhibition, fluorescein peptide | FP activity change, % at 61.4 µM | Fluorescence polarization, fluorescein-MLL peptide displacement from menin | 290,000 tested, under 10 active; inconclusive = falling polarisation curve, or a change in total fluorescence; inactive = total fluorescence flat and polarisation flat or rising; no compound was filed as active; the % refers to the polarisation; negative = inhibition;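 note: % of control where 0% means no effect; inhibitors lower the polarisation; unlabelled MLL peptide was the positive control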
# gsp antag: antagonists of gsp mutant (McCune-Albright syndrome). Potency, µM (highest dose often 76.9 µM), without a hit: at the highest dose activity change, negative = inhibition, usual class: inhibitors. gsp-mutant cells, cAMP HTRF, 30 min; control for the full effect not named in the record. 340,000 tested, 0.4% active. AID 624288; active = falling curve of any shape with a large fitted effect; inconclusive = falling curve, mostly with a smaller effect; inactive = flat or rising curve; cell line not stated here;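 note: intracellular cAMP measured with PDE inhibitor Ro 20-1724 present during compound exposure; potency is the fitted concentration of half-maximal effect; % is set by controls: 0 for no effect and ±100 for the full control effect; nearly all actives have a fitted effect of over 65% in size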
#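 Measurement of cellular cAMP by homogeneous time-resolved fluorescence following a 30 min compound exposure at 37C. The PDE inhibitor […] was present throughout; the assay buffer was DPBS with 0.05% BSA and 0.005% Tween 20.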
# TRPML1 inh: inhibitors of human TRPML1 channel | Q9GZU1 | TRPML1-inducible cells, Ca2+ dye fluorescence, FDSS; active compounds read low; inhibition of EC80 agonist-evoked calcium signal | activity change, negative = inhibition, % (concentration not given with the values) | 390,000 tested, 0.02% active; in the data active means activity change below about -50%; inconclusive means about -30% to -50%; inactive means above about -30%;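 note: stimulus is agonist 54-4 at its EC80 concentration; % is set by controls: 0 for no effect and ±100 for the full control effect; the text of the record puts the active cut at -80%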
#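 Tet-induced TRPML1-DL cells loaded with Ca8 no-wash calcium dye were read kinetically on FDSS. Compound addition was followed by EC80 agonist 54-4 (4 uM final); inhibition was read over 110 s.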
# TRPV1 potentiator: enhances activation of the human vanilloid receptor TRPV1 | AID 540277 | 320,000 tested, 0.02% active | TRPV1-expressing cells, Fluo-8 calcium influx, capsaicin EC20 potentiation; host cell line not named in the record; control for the full effect not named in the record | potentiation, % at 8.33 µM | Q8NER1; active means potentiation above 80%; inconclusive means 30% to 80%; inactive means below 30%; note: 0% is about no effect
# Target sequence (Q8NER1 whole entry, looked up): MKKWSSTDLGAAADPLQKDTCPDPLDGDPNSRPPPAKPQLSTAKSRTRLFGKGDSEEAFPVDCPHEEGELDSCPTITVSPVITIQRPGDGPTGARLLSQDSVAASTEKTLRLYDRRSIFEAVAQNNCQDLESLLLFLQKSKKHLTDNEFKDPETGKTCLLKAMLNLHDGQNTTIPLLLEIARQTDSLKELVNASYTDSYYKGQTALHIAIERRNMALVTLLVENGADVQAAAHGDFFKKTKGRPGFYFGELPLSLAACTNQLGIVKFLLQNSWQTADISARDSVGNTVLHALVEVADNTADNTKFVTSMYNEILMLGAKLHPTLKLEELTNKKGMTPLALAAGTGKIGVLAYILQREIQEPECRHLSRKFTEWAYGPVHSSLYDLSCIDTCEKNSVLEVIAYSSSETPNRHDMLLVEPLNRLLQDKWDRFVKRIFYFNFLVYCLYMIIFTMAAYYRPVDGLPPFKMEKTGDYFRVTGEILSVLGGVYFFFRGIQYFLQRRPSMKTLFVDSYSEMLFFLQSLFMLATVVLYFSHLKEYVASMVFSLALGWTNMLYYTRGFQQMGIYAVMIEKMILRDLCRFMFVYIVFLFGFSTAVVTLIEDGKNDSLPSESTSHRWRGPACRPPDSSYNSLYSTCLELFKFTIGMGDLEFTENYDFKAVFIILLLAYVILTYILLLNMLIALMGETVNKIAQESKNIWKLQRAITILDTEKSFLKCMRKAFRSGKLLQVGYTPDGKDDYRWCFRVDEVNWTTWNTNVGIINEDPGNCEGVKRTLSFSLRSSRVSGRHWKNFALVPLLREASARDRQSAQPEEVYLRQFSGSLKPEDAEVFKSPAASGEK
#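 TRPV1-expressing cells were cultured overnight at 35.5C and loaded with Fluo-8 calcium dye for 40 to 90 min at room temperature. After a 10 s baseline, compound was added and calcium influx was read kinetically for 3 min (ex 480/em 520 nm).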
# Sfp PPTase inh: blocks B. subtilis Sfp PPTase activity | Potency, µM, for inactives: max response, negative = inhibition, actives largely listed as inhibitors | 310,000 tested, 3.5% active | AID 1490 | Biochemical Sfp PPTase activity, qHTS; active = well fitted inhibition curve with a large enough effect; inconclusive = small, poorly fitted or top-dose-only effect, or another doubt; inactive = no such curve, though single readings can be large or run the other way;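 note: the enzyme is Sfp with the accession as filed and its product quenches rhodamine fluorescence; potency is the fitted concentration of half-maximal effect; 0% = enzyme reaction without inhibitor and -100% = no enzyme wells; top concentration of the series not given in the record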
#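 Fluorescence-quenching assay: 15 nM Sfp-PPTase preincubated 15 min at room temperature with compound, then 5 uM rhodamine-CoA and 12.5 uM BHQ-2-labelled YbbR peptide added. Fluorescence (ex 525/em 598 nm) read at start and after 30 min; difference gives rate.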
# gsp ag: activates gsp, the McCune-Albright syndrome mutation | gsp mutant cells, cAMP HTRF, 30 min; control for the full effect not named in the record | Potency, µM (top dose mostly 76.9 µM), without a hit: at the highest dose activation (cAMP increase), usual class: activators | 340,000 tested, 0.13% active | AID 624287; active = well fitted activation curve with a large enough effect; inconclusive = small, poorly fitted or top-dose-only effect, or another doubt; inactive = no such curve, though single readings can be large or run the other way; cell line not stated here;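 note: phosphodiesterase inhibitor Ro 20-1724 added with compounds to block cAMP breakdown; potency is the fitted concentration of half-maximal effect; nearly all actives have a fitted effect of over 60% in size; about a fifth of the inactives were tested at one dose only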
#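 Cells in DMEM/10% FBS with G418 were pretreated with compounds in DMSO plus […] (300 uM stock) for 30 min at 37C. cAMP was measured by HTRF (cAMP-d2 plus anti-cAMP antibody-K) after 30 min at room temperature.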
# ClpP mod: qHTS Assay for Activators of ClpP. ATP-dependent Clp protease proteolytic subunit (Bacillus subtilis (strain 168)), P80244. purified B. subtilis ClpP, FRET peptide cleavage, 20 min. Potency, µM (series often up to 57.5 µM), for the others: at the highest dose activity change, negative = active. 340,000 tested, 1.9% active. AID 651965, 2013; active = well fitted falling curve with a large enough effect; inconclusive = small, poorly fitted or top-dose-only effect; inactive = no such curve, though single readings can be large or run the other way; note: potency is the fitted concentration of half-maximal effect; the source files actives as falling curves though it sought activators and does not explain the sign; nearly all actives have a fitted effect of over 65% in size; many hits overshoot -100%
# Target sequence (P80244 whole entry, looked up): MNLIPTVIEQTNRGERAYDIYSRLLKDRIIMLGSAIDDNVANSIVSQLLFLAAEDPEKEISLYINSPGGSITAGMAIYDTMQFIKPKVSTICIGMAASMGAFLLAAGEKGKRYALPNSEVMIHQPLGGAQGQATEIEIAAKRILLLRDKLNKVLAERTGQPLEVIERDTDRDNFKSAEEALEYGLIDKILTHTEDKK
#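 Purified B. subtilis ClpP, 10 microg/mL final in Tris/HCl pH8 with KCl, BSA, glycerol and Tween-20, cleaved an Abz/nitrotyrosine-quenched decapeptide. Fluorescence (ex 320, em 430) was read at 0 and 20 min at room temperature. Delta was normalized to 5.8 microM ADEP and DMSO/no-enzyme controls.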
# * = called active by the depositor; ? = inconclusive; . = not tested or not shown; & = joins results of further samples; [ ] = another dose, or the depositor's remark.
SMILES,Menin-MLL FL inh,gsp antag,TRPML1 inh,TRPV1 potentiator,Sfp PPTase inh,gsp ag,ClpP mod
COc1ccc(C(=O)OC(C)CN2CCOCC2)cc1 (centres undefined),1.4,11%,-4,-6,15%,10%,0.7%
CCOc1ccc2nc(NCCNC(=O)Nc3cccc(C)c3)c(C#N)cc2c1,2.5,2%,-1,?,-12%,-4%,16µM*
Cc1c(CCO)c(=O)[nH]n1S(=O)(=O)c1cccc(C(F)(F)F)c1,0.8,2%,-14,-12,12%,-2%,-0.1%
COc1ccc(NC(=O)CS(=O)c2cccc(C(F)(F)F)c2)cc1 (centres undefined),-2.9,-1%,18,-1,-3%,-18%,1.6%
CCCCOc1cccc(OCCCC)c1C(=O)Nc1cc(C)on1,-0.3,-8%,-10,-25,6%,13%,-2.7%
Nc1nnc(CCS(=O)(=O)c2cc(Cl)ccc2Cl)s1,0.2,7%,0,5,-3%,-51%[inhibitor],0.6%
CC1(C)CC(NC(=O)CCC2CCCC2)CC(C)(C)N1,3.6,14%,-3,-21,-1%,-14%,-1.1%
CCCCCCC1NC(C(=O)O)CS1 (centres undefined),3.0,-1%,-11,21,45µM*,-15%,0.7%
Cc1ccc(-c2nnc(N3CCOCC3)c3ccccc23)cc1S(=O)(=O)NCc1cccnc1,1.3,-13%,1,3,21%,-15%,.
O=C(CCc1nc(-c2ccc(Cl)cc2)no1)NCC1CCCO1 (centres undefined),-1.5,2%,13,8,17%,29%,.
CC(C)(C)C(=O)COC(=O)c1c2c(nc3ccccc13)CCC2,5.0,-5%,-3,-13,-8%,3%[15.4 µM],.
Cc1cccc(NC(=O)NNC(=O)c2ccc3ccccc3c2)c1,-0.8,9%,20,11,12%,16%,-15%
O=C(CC(n1cncn1)C(Cl)(Cl)Cl)c1ccc([N+](=O)[O-])cc1 (centres undefined),-6.5,5%,46,3,45µM*,4%,-0.8%
Cc1ccc(CN(C)C(=O)COc2ccc(S(=O)(=O)N3CCCC3)cc2[N+](=O)[O-])c(C)c1,.,-10%,41,4,.,?,-15%
CCC(C)(C)NC(=O)CCn1c(-c2ccccc2)cc(C(C)=O)c1C,1.9,-1%,3,-34,-4%,2%,-3.2%
COc1cc(OC)c(C(=O)N2CCN(c3ccccn3)CC2)cc1OC,-8.2,1%,-16,0,17%,3%,?
CCOC(=O)c1[nH]c2c(c1-c1ccccc1)C(=O)CC(c1ccccc1)C2 (centres undefined),-0.6,6%,-23,-6,7%,-130%[inhibitor],-2.7%
C[C@@]12C(=O)Nc3ccc(F)cc3C(=O)N1[C@H]1c3cc(Br)ccc3OC[C@@H]1[C@@H]2c1ccccc1,.,-16%,12,.,.,4%,-21%
COc1cccc(C(=O)N(c2ccccc2)C2C=CS(=O)(=O)C2)c1 (centres undefined),-1.2,8%,-1,-25,12%,6%,-2.4%
Cc1cc(SCC(=O)Nc2cccc(S(=O)(=O)NC3=NCCCCC3)c2)c(C)cc1Br,7.3,?,0,3,19%,9%[15.4 µM],0.0%
CCN(CC)S(=O)(=O)c1ccc2[nH]cc(C(=O)NCCCN3CCCCC3)c(=O)c2c1,2.2,12%,-9,6,5%,3%[15.4 µM],28µM*
COC(=O)c1ccc2c(c1)C(=O)/C(=C/c1ccc(O)cc1)O2,?,-6%,23,-16,10%,0%,-2.6%
CCOC(=O)C1CCN(C(=O)C2CCN(S(=O)(=O)c3cccc4nsnc34)CC2)CC1,.,-7%,28,?,19%,-8%,0.9%
O=C(O)c1cccc2c1C(=O)c1ccc(N3CCCC3)cc1S2(=O)=O,.,-6%,12,1,.,6%,-0.2%
CCCN1C(=O)/C(=C\C=C2/Sc3ccccc3N2CCO)SC1=S,?,-12%,6,3,?,23%,.

# Three of the entries above in order of their number in gsp antag, low to high.
molecule | Menin-MLL FL inh | gsp antag | TRPML1 inh | Sfp PPTase inh | gsp ag
C[C@@]12C(=O)Nc3ccc(F)cc3C(=O)N1[C@H]1c3cc(Br)ccc3OC[C@@H]1[C@@H]2c1ccccc1 | . | -16% | 12 | . | 4%
Cc1ccc(CN(C)C(=O)COc2ccc(S(=O)(=O)N3CCCC3)cc2[N+](=O)[O-])c(C)c1 | . | -10% | 41 | . | ?
CCN(CC)S(=O)(=O)c1ccc2[nH]cc(C(=O)NCCCN3CCCCC3)c(=O)c2c1 | 2.2 | 12% | -9 | 5% | 3%[15.4 µM]

# (cont.)
SMILES,Menin-MLL FL inh,gsp antag,TRPML1 inh,TRPV1 potentiator,Sfp PPTase inh,gsp ag,ClpP mod
Cc1nn(C)cc1CN(C)C(=O)c1cc2nc(-c3ccco3)cc(C(F)(F)F)n2n1,?,7%,9,15,35µM*,-33%[inhibitor],-30%
Cc1ccc(F)cc1NC(=O)C1CCN(c2cnccn2)CC1,4.4,15%,-6,7,14%,27%,-24%
O=C(C1CC1)N(Cc1nc2ccccc2c(=O)[nH]1)Cc1cccs1,0.6,10%,.,-8,12%,-15%,0.6%
Cc1noc(C)c1C(=O)N1CCN(c2ccccc2O)CC1,.,0%,4,-5,.,0%,1.7%
CCCn1c2ccccc2c2cnn(CC(=O)NCCCN3CCCCC3CC)c(=O)c21 (centres undefined),-4.2,13%,0&4,-19,5%,14%,3.3%&4.3%
Cc1ccc(-n2nnnc2SCn2nnc3ccccc3c2=O)c(C)c1,1.3,?,10,-6,-16%,3%,0.1%
CCN(C(=O)COC(=O)CCCOc1ccc(Cl)cc1C)c1c(N)n(Cc2ccccc2)c(=O)[nH]c1=O,.,6%,-7,.,.,2%,0.1%
O=C(CSc1nnc(NC(=O)C2CC2)s1)NCc1cccs1,-0.1,2%,1,7,10%,-9%,-1.6%
CC1CCN(S(=O)(=O)c2ccc3c(c2)N(CC(=O)NCCCN2CCCCC2C)C(=O)CS3)CC1 (centres undefined),.,7%,13&-14,4,10%,9%,-1.1%&0.6%
O=C(CN(c1ccccc1)S(=O)(=O)c1ccc(F)cc1)NC1CCS(=O)(=O)C1 (centres undefined),-2.6,3%,4,12,4%,3%[15.4 µM],.
CCOc1ccc(-c2cc(N3C(=O)Nc4ccccc4N3O)on2)cc1,-0.8,?,-5,11,14%,22%,-1.5%
COc1cc(-c2cc(C(=O)Nc3ccc(C)c(S(=O)(=O)N4CCOCC4)c3)c3ccccc3n2)cc(OC)c1OC,.,3%,-7,.,.,?,.
O=C(Oc1ccc(N(C(=O)c2ccncc2)S(=O)(=O)c2cccs2)cc1)c1ccncc1,0.7,-6%,7,-6,10%,-14%,3.0%
COC(=O)CCCCCNc1ccc(C(=O)OC)cc1N,-1.8,-21%,16,15,-32%,37%,-15%
CC1CCc2sc(C(=O)OCC(=O)NC(C)C)cc2C1 (centres undefined),-8.1,9%,-26,7,14%,-16%[15.4 µM],.
Cc1cc(NC(=O)Nc2cccc(Cl)c2)n(-c2ccccn2)n1,3.8,?,-14,0,12%,-10%[15.4 µM],.
COCCCNCCOc1cc(C(C)C)ccc1C,-0.8,19%,13,10,-12%,6%,-1.2%
CC(Oc1ccc(Br)cc1Br)C(=O)Nc1cccnc1Cl (centres undefined),.,-30%,7,19,-3%,-3%,1.3%
CCOC(=O)c1c(CSc2ccc(CC)cc2)oc2ccc(O)c(CN(C)C)c12,-0.2,16%,13,-16,?,1%[15.4 µM],.
O=C(COC(=O)Cc1cccc(C(F)(F)F)c1)NC1CCS(=O)(=O)C1 (centres undefined),.,9%,38,-4,.,4%,18%
COc1cccc(Nc2cc(C)nc3ccccc23)c1,-1.3,1%,-3,-11,3%,2%,-0.1%
O=C(NCCN1CCOCC1)c1ccc([N+](=O)[O-])cc1[N+](=O)[O-],-0.5,-7%,-4,-5,-11%,22%,2.7%
Cc1ccc(Cl)cc1N1CCN(C(=O)c2cc3c(=O)n(C)c4ccccc4c3n2C)CC1,-0.1,?,-2,2,-2%,23%,0.8%
COc1ccc(Cl)cc1NC(=O)C(OC)c1ccccc1 (centres undefined),6.2,-16%,12,4,?,-3%[15.4 µM],0.4%
CC(=O)Oc1ccc(-c2ccc(C(=O)O)cc2)cc1,4.6,-1%,21,4,25%,14%,-3.2%

# The last two compounds of the section before are carried over, then new ones follow:
SMILES,Menin-MLL FL inh,gsp antag,TRPML1 inh,TRPV1 potentiator,Sfp PPTase inh,gsp ag,ClpP mod
COc1ccc(Cl)cc1NC(=O)C(OC)c1ccccc1 (centres undefined),6.2,-16%,12,4,?,-3%[15.4 µM],0.4%
CC(=O)Oc1ccc(-c2ccc(C(=O)O)cc2)cc1,4.6,-1%,21,4,25%,14%,-3.2%
CCC(=O)Nc1nc(N)n(-c2ccccc2)n1,1.9,4%,-9,0,14%,-6%,1.5%
O=C(NCCc1ccccc1)C1CC(=O)N(C2CCCC2)C1 (centres undefined),1.6,7%,4,1,12%,-7%,0.4%
COc1ccc(N(CC(=O)Nc2ccc(F)c(F)c2)S(=O)(=O)c2c(C)[nH]c(=O)[nH]c2=O)cc1,.,4%,-7,1,17%,-49%[inhibitor],-1.8%
COc1ccc(C(=O)NNC(=O)c2cnccn2)cc1[N+](=O)[O-],3.5,8%,3,-5,45µM*,13%,2.1%
CN(CC(=O)Nc1ccccc1C(F)(F)F)C(=O)CSc1nnc(N)s1,.,-1%,25,.,.,9%,.
O=S(=O)(Cc1ccccc1)N1CCCc2ccccc21,6.7,17%,2,-9,-9%,3%,-5.5%
COc1ccccc1N=Nc1[nH]c2ccc(C)cc2c1O,3.0,1%,7,-2,7%,-20%,?
